# Bioassay records: PubChem BioAssay, National Center for Advancing Translational Sciences (NCATS)
# Cruzain Triton = inhibitors of Trypanosoma cruzi cruzain with detergent. Potency, µM, without a hit: max response, negative = inhibition, hits mostly inhibitors. 0.43% of 200,000 active. purified cruzain, Z-FR-AMC fluorescence, 0.01% Triton. P25779;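 also: plate controls were neutral wells for no effect and buffer without enzyme for full effect; nearly all actives have a fitted effect of over 40% in size; top concentration of the series not given in the record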
# Target sequence (P25779 123-467 limits assumed): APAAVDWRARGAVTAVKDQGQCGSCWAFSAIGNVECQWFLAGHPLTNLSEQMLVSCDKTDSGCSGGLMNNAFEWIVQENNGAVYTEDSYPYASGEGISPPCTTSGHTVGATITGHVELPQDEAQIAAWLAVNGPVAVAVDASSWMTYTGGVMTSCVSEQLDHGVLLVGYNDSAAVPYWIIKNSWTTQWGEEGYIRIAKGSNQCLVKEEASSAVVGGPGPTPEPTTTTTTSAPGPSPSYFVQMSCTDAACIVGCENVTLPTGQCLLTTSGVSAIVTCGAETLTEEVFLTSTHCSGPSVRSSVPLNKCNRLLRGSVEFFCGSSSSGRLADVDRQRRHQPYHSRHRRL
#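 Detergent-containing arm of a paired screen for aggregation-based inhibition: 0.01% Triton X-100 present. Cruzain at 1.5 nM cleaved 2 uM Z-FR-AMC at pH 5.5 with 5 mM DTT; AMC fluorescence gain over 60 s measured activity.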
# RE007 growth inh = less growth of the S. pombe RE007 Vpr strain | S. pombe RE007 Vpr strain, BacTiter-Glo ATP luminescence, 24 h; control for the full effect not named in the record | 0.21% of 360,000 active | Potency, µM (doses to about 92.2 µM), without a hit: at the highest dose activity change, negative = less growth; active = well fitted falling curve with a large enough effect; inconclusive = small, poorly fitted or top-dose-only effect; inactive = no such curve, though single readings can be large or run the other way;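 also: % is scaled to controls: 0 for no effect and ±100 for the full control effect; nearly all actives have a fitted effect of over 50% in size; the assay follows cell death caused by Vpr and the record does not say whether a fall means rescue or toxicity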
#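 Fission yeast RE007 carrying one integrated HIV-1 vpr copy, seeded at OD 0.01 in PMG+AL medium with 23 nL pinned compound. Grown 24 h at 30 degrees; viability read by BacTiter-Glo luminescence after 5 min.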
# SARS PLpro yeast = SARS-CoV PLP inhibition in yeast | S. cerevisiae expressing SARS-CoV PLpro, growth rescue; control for the full effect not named in the record | Potency, µM (series often up to 32.9 µM), inactives show top-dose activity, positive = growth rescue | 0.19% of 330,000 active | AID 485353; active means well fitted rising curve with a large enough effect; inconclusive means small, poorly fitted or top-dose-only effect; inactive means no such curve, though single readings can be large or run the other way; also: 0% is about no effect; nearly all actives have a fitted effect of over 55% in size; growth read by luminescence after 48 h
# LASV entry inh = Lassa virus entry inhibition; AID 540256; Lassa virus pseudotype entry inhibition, cell reporter; control for the full effect not named in the record; 1.2% of 300,000 active; Potency, µM (series often up to 37.9 µM), inactives show at the top dose activity change, negative = inhibition, hits mostly inhibitors; active means well fitted inhibition curve with a large enough effect; inconclusive means small, poorly fitted or top-dose-only effect, or effect the other way; inactive means flat fitted curve, though single readings scatter; tested in HEK293 cells; also: % is scaled to controls: 0 for no effect and ±100 for the full control effect; nearly all actives have a fitted effect of over 50% in size; luciferase read-out
# Cruzain noTriton = cruzain (T. cruzi) inhibition without detergent | AID 1476 | Potency, µM, inactives show max response, negative = inhibition, usual class: inhibitors | purified cruzain, Z-FR-AMC fluorescence, no detergent | 2.3% of 200,000 active | P25779;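 also: plate controls were enzyme without inhibitor for no effect and buffer without enzyme for full effect; nearly all actives have a fitted effect of over 40% in size; top concentration of the series not given in the record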
#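 Detergent-free condition (0.00005% Triton X-100) in acetate buffer pH 5.5 with DTT. 1.5 nM enzyme and compound were pre-mixed 15 min, then 2 uM Z-FR-AMC substrate added; reaction progress from fluorescence change between first and third reads (60 s).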
# NS1 inh = inhibitors of influenza NS1 protein function | S. cerevisiae slowed by influenza A NS1, growth recovery by OD600 | Potency, µM (doses to about 46.1 µM), inactives show at the top dose activity, positive = more growth | 0.4% of 270,000 active | AID 2326; active means well fitted rising curve with a large enough effect; inconclusive means small, poorly fitted or top-dose-only effect; inactive means no such curve, though single readings can be large or run the other way; also: nearly all actives have a fitted effect of over 50% in size
#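 OD600 was taken as the measure of yeast growth restored by compound in an NS1-expressing S. cerevisiae strain. Cells had been washed out of glucose medium and diluted 1:100 into galactose -URA medium, pH 6.0.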
# StopGo reporter = lowers the luciferase signal of an FMDV 2A StopGo reporter; human cells with a luciferase reporter of 2A StopGo recoding; control for the full effect not named in the record; Potency, µM (titrated, usually from 57.9 µM), for the others: at the top dose signal change, negative = less light; 1.2% of 410,000 active; AID 1159524; active = well fitted falling curve with a large enough effect; inconclusive = small, poorly fitted or top-dose-only effect; inactive = no such curve, though single readings can be large or run the other way; tested in HEK293T cells; also: % is scaled to controls: 0 for no effect and ±100 for the full control effect; nearly all actives have a fitted effect of over 45% in size; luciferase light after 4 h
# Marburg entry inh = Marburg virus entry inhibition; Marburg virus pseudotyped entry inhibition, cell reporter; control for the full effect not named in the record; about a third of the inactives were read at about 46 µM; Potency, µM (series often up to 37.8 µM), without a hit: top-dose activity change, negative = inhibition, most hits filed as inhibitors; 1.8% of 300,000 active; AID 540276; active = well fitted inhibition curve with a large enough effect; inconclusive = small, poorly fitted or top-dose-only effect, or effect the other way; inactive = flat fitted curve, though single readings scatter; tested in HEK293 cells; about a fifth of its hits are not listed in these tables; also: % is scaled to controls: 0 for no effect and ±100 for the full control effect; luciferase read-out
# * marks the source's active call; other numbers are inactive results; u = inconclusive; x = not tested or not shown; & = joins results of further samples; [ ] = remark or other dose. Unless noted, calls follow the shape of the dose curve; as a rule, active = well fitted curve in the direction sought with a large enough effect; inconclusive = small, poorly fitted or top-dose-only effect, or another doubt; inactive = no such curve, though single readings can be large; an effect the other way counts as inactive or inconclusive. Potency is read from the fitted curve at half-maximal effect.
Molecule,Cruzain noTriton,LASV entry inh,NS1 inh,Marburg entry inh,Cruzain Triton,StopGo reporter,RE007 growth inh,SARS PLpro yeast
O=C(O)c1ccc(N2CCCCCC2)c(N2C(=O)c3ccccc3C2=O)c1,-7%,13%,0%,-16%,-3.4%,-14%,14%,-1%
Cc1cc(C)c(S(=O)(=O)Nc2ccc(OCC(=O)O)cc2)c(C)c1,-21%,x,u,-1%,-2.4%,-28%,9%,12%
COC(=O)c1cc(NC(=O)c2cccs2)ccc1N1CCOCC1,x,x,-1%,0%[46.1 µM],x,5%,-5%,0%
COc1c(-c2ccc(O)c(O)c2)oc2cc(O)cc(O)c2c1=O,2%,x,-2%,x,-2.1%,5%,-11%,2%
Cc1[nH]c(=S)[nH]c(=O)c1Cc1ccc(OCC(C)C)cc1,x,0%[46.1 µM],0%,28%[46.1 µM],x,5%,5%,0%
COc1ccc(-n2nnnc2SCC(=O)N2CCOCC2)cc1,6%,x,u,x,-6.3%,28%,6%,-3%
Fc1ccc(OCCOCCOc2cccc3[nH]ccc23)cc1,x,x,-5%,x,x,-4%,1%,-2%
C1COCCNCCOCCOCCN1,-12%,-9%,-16%,-12%[46.1 µM],10%,19%,-4%,-3%
COc1ccc(C2Oc3nc(SC)nnc3-c3ccccc3N2C(C)=O)cc1 (stereo not drawn),8%,-9%[46.1 µM],x,4%[46.1 µM],-9.6%,u,x,x
Cc1c(Cl)cccc1NC(=O)CN1C(=O)COc2ccc(S(=O)(=O)N3CCCCCC3)cc21,4%,6%[46.1 µM],x,x,0.3%,-6%,x,x

# The listing continues.
Molecule,Cruzain noTriton,LASV entry inh,NS1 inh,Marburg entry inh,Cruzain Triton,StopGo reporter,RE007 growth inh,SARS PLpro yeast
CC(=O)c1ccc(NC(=O)c2nc(-c3ccccc3)n(-c3ccccc3Cl)n2)cc1,-15%,-2%[46.1 µM],x,-26%[46.1 µM],-15%,-23%,x,x
Cc1ccc(NC(=O)CSc2nnc(COc3ccccc3C)o2)cc1,x,10%,6%,-7%[46.1 µM],x,-13%,-8%,1%
Cc1ccccc1OCc1ccc(-c2nc(C#N)c(N3CCC(C(N)=O)CC3)o2)o1,u,-13%[46.1 µM],x,u,-4.2%,-18%,x,x
Cc1ccc(C(=O)c2cc([N+](=O)[O-])ccc2N2CCOCC2)c(C)c1,-5%,u,13%,u,-7.7%,-22%,7%,-10%
Cc1c(C(=O)Nc2ccc(Oc3ccccc3)cc2)sc2nc3n(c(=O)c12)CCC3,u,u,13%,u,-2.8%,u,21%,-18%
Cc1cccc(N(CC(=O)NC(C)C)C(=O)c2ccc(N3CCCC3)nc2)c1,x,-6%,x,26%[46.1 µM],x,-11%,-6%,2%
CC(C)NC(=O)c1ccccc1NC(=O)CN(c1ccc2c(c1)OCO2)S(C)(=O)=O,-2%,-1%,0%,0%,-0.8%,x,9%,-1%
O=C(NCc1cccc(F)c1F)C1CCC(=O)N(C2CC2)C1 (stereo not drawn),x,x,1%,x,x,-6%,2%,-7%
CC(NS(=O)(=O)OCC(Cl)(Cl)Cl)c1ccc(Br)cc1 (stereo not drawn),x,x,-91%,x,x,-18%,-5%,-20%
OCCN(Cc1ccccc1)CC(O)COc1ccc2c(c1)OCO2 (stereo not drawn),x,x,2%,x,x,-1%,-11%,0%

# Reprinted from the part before: two compounds; new compounds follow.
Molecule,Cruzain noTriton,LASV entry inh,NS1 inh,Marburg entry inh,Cruzain Triton,StopGo reporter,RE007 growth inh,SARS PLpro yeast
CC(NS(=O)(=O)OCC(Cl)(Cl)Cl)c1ccc(Br)cc1 (stereo not drawn),x,x,-91%,x,x,-18%,-5%,-20%
OCCN(Cc1ccccc1)CC(O)COc1ccc2c(c1)OCO2 (stereo not drawn),x,x,2%,x,x,-1%,-11%,0%
CCOC(=O)CSC1=C(C#N)C(c2ccccc2OC)CC(=O)N1 (stereo not drawn),-2%,x,-6%,x,4.3%,-16%,6%,1%
CCc1ccc2nc(SCC(=O)Nc3ccccc3N3CCOCC3)c(C#N)cc2c1,x,u,-42%,u,x,u,8%,1%
Oc1ccc(C(c2nnnn2CCc2ccccc2)N2CCN(c3nc4ccccc4s3)CC2)cc1 (stereo not drawn),x,x,-10%,x,x,-2%,-1%,5%
COc1ccccc1N1CCN(S(=O)(=O)CCNC(=O)C2CCCC2)CC1,x,-15%,x,-14%,x,-15%,14%,1%
COCCNc1nnc(SCC(=O)Nc2sc3c(c2C(=O)c2ccccc2)CCCC3)s1,18%,u,6%,u,-4.0%,u,12%,-41%
Cc1csc(NC(=O)CSc2nc(=O)cc(N)n2-c2ccc(F)cc2)n1,x,11%[46.1 µM],-10%,-7%[46.1 µM],x,-4%,5%,-3%
O=S(=O)(c1ccc(OCC2CO2)cc1)c1ccc(OCC2CO2)cc1 (stereo not drawn),x,x,0%,x,x,-6%,-8%,0%
COc1ccc(-n2c(SCC(=O)Nc3cccc4ccccc34)nc(O)cc2=O)cc1,x,14%,25%,1%[46.1 µM],x,13%,-2%,0%
Oc1c(Br)cc(/C=N/n2c(-c3ccccc3)n[nH]c2=S)cc1Br,x,-10%,14%,u,x,-16%,-4%,1%
CCCN1C(=O)NC2(O)C(=O)c3ccccc3C12O (stereo not drawn),1%,-9%,1%,-7%,2.4%,0%,-4%,5%

# Grouped by structure, the entries above with an NH in an aromatic ring (3)
Molecule,Cruzain noTriton,LASV entry inh,NS1 inh,Marburg entry inh,Cruzain Triton,StopGo reporter,RE007 growth inh,SARS PLpro yeast
Cc1[nH]c(=S)[nH]c(=O)c1Cc1ccc(OCC(C)C)cc1,x,0%[46.1 µM],0%,28%[46.1 µM],x,5%,5%,0%
Fc1ccc(OCCOCCOc2cccc3[nH]ccc23)cc1,x,x,-5%,x,x,-4%,1%,-2%
Oc1c(Br)cc(/C=N/n2c(-c3ccccc3)n[nH]c2=S)cc1Br,x,-10%,14%,u,x,-16%,-4%,1%

# Next section.
Molecule,Cruzain noTriton,LASV entry inh,NS1 inh,Marburg entry inh,Cruzain Triton,StopGo reporter,RE007 growth inh,SARS PLpro yeast
C=CCn1c(SCC(=O)N2CCOCC2)nc2c([nH]c3ccccc32)c1=O,x,1%,12%,-23%,x,-19%,-5%,u
CCOc1ccc(NS(=O)(=O)c2ccc(C(=O)NCc3ccccn3)cc2)cc1,x,6%,x,u,x,11%,12%,3%
O=c1c2cn[nH]c2[nH]c(=S)n1-c1cccc2ccccc12,-11%,4%,22%,u,-5.9%,5%,11%,11%
C=CCNCCOCCOc1ccc(Cl)cc1C(C)(C)C,-5%,-16%,-7%,u,-2.1%,-16%,-4%,-23%
CC(C)(C)C(=O)Nc1ccc(S(=O)(=O)c2ccc(NC(=O)C(C)(C)C)cc2)cc1,5%,3%,3%,13%,-4.6%,x,-3%,1%
COc1ccc(CNC(=O)c2ccc3c(c2)N(C)CCS3)cc1,x,x,6%,x,x,3%,7%,-6%
Cc1ccc(O)c(NC(=O)c2cc(-c3ccc(F)cc3)on2)c1,-7%,13%&26%[46.1 µM],x,u,-1.6%,6%&33%,5%,-2%
O=C(COC(=O)C1CC2C=CC1C2)Nc1cccc(S(=O)(=O)N2CCCCC2)c1 (stereo not drawn),5%,u,-2%,u,-6.4%,u,-7%,-21%
COC(=O)[C@H](Cc1ccccc1)NC(=O)[C@@H](N)CC(=O)O,-1%,x,x,x,-1.0%,-6%&-19%,3%[18.4 µM],x
Cc1ccc(-c2nn(-c3cc(Cl)ccc3[N+](=O)[O-])c(=O)c3ccccc23)cc1,u,-23%,-3%,-19%,0.3%,-18%,6%,1%

# Other results.
Molecule,Cruzain noTriton,LASV entry inh,NS1 inh,Marburg entry inh,Cruzain Triton,StopGo reporter,RE007 growth inh,SARS PLpro yeast
O=C(CC(=O)Nc1ccccc1F)Nc1ccccc1F,x,19%[46.1 µM],-3%,7%[46.1 µM],x,34%[activator],-7%,0%
CC1CCc2nc3ccccc3c(C(=O)OCC(=O)NC3CCS(=O)(=O)C3)c2C1 (stereo not drawn),x,-9%,x,-10%[46.1 µM],x,-10%,-16%,7%
COc1cc(OC)c(Nc2c3c(nc4nc(-c5cccs5)nn24)CCCC3)cc1Cl,u,u,x,x,-5.7%,u,x,x
c1ccn2c(SCc3ccc4c(c3)OCCO4)nnc2c1,-17%,x,-5%,x,-0.4%,46%[activator],4%,1%
COc1ccc(NC(=O)c2sc3nc(C)c(C(=O)Nc4ccc(C)cc4C)c(-c4cccs4)c3c2N)cc1,u,9%[46.1 µM],x,-4%[46.1 µM],-3.9%,-9%,x,x
COCCN(CCOC)C(=O)c1cc2c(=O)n3ccccc3nc2s1,23%,1%,-2%,u,-23%,62%[activator],0%,0%
Cc1cc(C)nc(NC(=O)c2ccc(Br)cc2)n1,x,24%[46.1 µM],-1%,3%[46.1 µM],x,-1%,-3%,-2%
CCc1ccc(OC)c(S(=O)(=O)Nc2ccccc2C)c1,-3%,6%,-14%,-3%,-2.9%,x,u,1%
CCOC(=O)CSc1nnc(-c2ccncc2)o1,-3%,11%,2%,20%[46.1 µM],0.6%,0%,-1%,16%
COc1cc(Cl)cc2c1Sc1ccccc1/C2=C/CCN(C)C,1%,u,9%,u,-8.8%,-15%,-29%,-3%

# The list goes on.
Molecule,Cruzain noTriton,LASV entry inh,NS1 inh,Marburg entry inh,Cruzain Triton,StopGo reporter,RE007 growth inh,SARS PLpro yeast
Cc1ccc(C(=O)CC2(O)C(=O)N(Cc3ccc4c(c3)OCO4)c3ccccc32)cc1 (stereo not drawn),-4%,-14%,-100%,u,-8.0%,-23%,9%,-9%
O=C(CSc1nnnn1C1CCCCC1)NCc1cccs1,x,x,3%,x,x,16%,3%,1%
NC(=O)Cc1ncc(C(F)(F)F)cc1Cl,x,x,-2%,x,x,-18%,4%,-2%
CC(C)(C)OC(=O)NCCC(=O)N/N=C/c1cccc2cccnc12,x,u,-1%,u,x,-17%,-19%,0%
Cc1ccc(CN(C)c2nc(-c3cccnc3)nc3ccccc23)o1,x,u,-23%,-2%,x,-29%,3%,-1%
Cc1ccc(N(CC(=O)N2CCc3ccccc32)C2=NC(=O)CS2)cc1,-8%,-2%,-5%,15%,3.3%,u,-2%,-1%
